Screens: PubChem, National Center for Advancing Translational Sciences (NCATS)
miR-21 FLuc – miR-21 reporter, rising signal | AID 2288 | Potency, µM (titrated, usually from 38.3 µM), for the others: at the top dose reporter change, positive = more light | 340,000 tested, under 10 active | HeLa miR-21 FLuc reporter, luciferase, 48 h; active = well fitted rising curve with a large enough effect; inconclusive = small, poorly fitted or top-dose-only effect; inactive = no such curve, though single readings can be large or run the other way;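 further: % of control where 0% means no effect; miR-21 action dims this reporter so a rising signal means less miR-21 action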
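Luminescence from a firefly luciferase reporter carrying a miR-21 binding site downstream, stably expressed under a CMV promoter in HeLa cells that make miR-21 endogenously, reports miRNA modulation after 48 h compound exposure up to approximately 40uM final.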
GLA inh pH 4.5 – alpha-galactosidase A (human) inhibition, pH 4.5. purified enzyme, 4-MU-alpha-Gal fluorescence, pH 4.5. activity change, negative = inhibition, % at 105 µM. 230,000 tested, under 10 active; inconclusive = small, poorly fitted or top-dose-only inhibition, or a rising curve; inactive = flat fitted curve, though single readings scatter; no compound was filed as active;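 further: 0% = full activity with enzyme and -100% = basal without enzyme; dose as in the result columns while the protocol names 77 µM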
Target sequence (P06280 whole entry, looked up): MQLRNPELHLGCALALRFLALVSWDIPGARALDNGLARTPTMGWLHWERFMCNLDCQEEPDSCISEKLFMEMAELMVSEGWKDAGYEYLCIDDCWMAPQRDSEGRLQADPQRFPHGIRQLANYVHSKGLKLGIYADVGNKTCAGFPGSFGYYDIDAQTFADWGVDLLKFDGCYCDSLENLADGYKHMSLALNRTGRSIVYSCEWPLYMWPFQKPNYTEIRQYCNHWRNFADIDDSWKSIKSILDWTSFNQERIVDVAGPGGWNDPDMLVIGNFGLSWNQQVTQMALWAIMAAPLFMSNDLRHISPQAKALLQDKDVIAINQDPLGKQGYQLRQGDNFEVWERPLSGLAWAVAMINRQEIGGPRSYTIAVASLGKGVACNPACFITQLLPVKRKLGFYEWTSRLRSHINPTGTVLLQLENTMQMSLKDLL
Rango complex inh – inhibitors of Rango-importin beta complex formation; Rango CFP/YFP FRET sensor + importin beta, 45 min; Potency, µM (top dose mostly 92.2 µM), inactives show at the highest dose inhibition of complex formation; hit rate 0.031% among 340,000; AID 540263; active = rising FRET ratio curve, often small or poorly fitted; inconclusive = mostly compound fluorescence or quenching in the first reads; inactive = flat curves in all reads;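 further: potency means the concentration at half of the fitted maximal effect; 0% = DMSO wells and 100% = buffer wells lacking importin beta; nearly all actives have a fitted effect of over 15% in size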
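FRET biosensor (snurportin 1 IBB flanked by EYFP and cerulean), 50 nM, with compound 5 min, then 0.125 microM importin beta in PBS, 1 mM DTT, 0.02% Tween-20, 0.1% BSA. CFP/YFP ratio read after 45 min at room temperature; pre-read flags interference.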
Rango dissoc inh – inhibition of RanGTP-driven Rango-importin beta dissociation. O95149+P62826. Biochemical FRET Rango-importin beta, RanGTP-induced dissociation. Potency, µM (titrated, usually from 46.1 µM), without a hit: at the top dose activity change, negative = inhibition. hit rate 0.071% among 340,000; active means falling FRET ratio curve, often poorly fitted, with flat reads before Ran was added; inconclusive means other falling curves, or compound fluorescence or quenching; inactive means flat or rising ratio curve;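 further: potency means the concentration at half of the fitted maximal effect; % of control where 0% means no effect; nearly all actives have a fitted effect of over 45% in size; -100% = wells without RanGTP and RCC1; the record marks most hits as doubtful in a second field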
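Recombinant Rango FRET biosensor (EYFP–snurportin 1 IBB–cerulean CFP10) at 0.1 uM premixed with 0.25 uM importin beta in PBS, 1 mM DTT, 0.02% Tween-20, 0.1% BSA. Compound added 5 min; RanGTP-RCC1 (0.6 uM Ran, 2 mM GTP, 0.2 uM RCC1) then triggers release, read at 45 min.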
An asterisk follows results filed as active; ? = inconclusive; · = not tested or not shown; & = joins results of further samples.

SMILES | miR-21 FLuc | GLA inh pH 4.5 | Rango complex inh | Rango dissoc inh
CC(NCc1cccc(OCc2ccccc2)c1)C(O)c1ccccc1 (configuration not stated) | 5% | -4 | 0.2% | 10%
CCOC(=O)C1CCN(C(=O)C2(NC(=O)Nc3ccc(F)cc3F)CCCCC2)CC1 | 1% | · | -4.1% | -2%
O=C1Nc2ccccc2N=C(c2ccccc2)c2ccccc21 | -33% | -4 | 0.0% | 0%
COc1ccccc1CNC(=O)c1c(N)n(CCCN2CCOCC2)c2nc3ccccc3nc12 | 17% | 17 | ? | ?
COc1ccccc1NC(=O)N(CCCN1CCOCC1)Cc1cc2cc3c(cc2[nH]c1=O)OCO3 | -4% | -2 | -0.5% | -18%
Cc1ccc(NC(=O)c2c(C)nc(Nc3nc4ccccc4o3)nc2C)cc1 | -7% | 7 | -0.6% | -2%
O=C(CN1CCN(S(=O)(=O)c2ccccc2)CC1)NC(=O)NC1CCCCC1 | -1% | -5 | -3.8% | 1%
CCOC(=O)C1(CC)NC(c2ccc(OC)c(OC)c2)C2C(=O)N(c3cccc(C(C)=O)c3)C(=O)C21 (configuration not stated) | 2% | · | 0.3% | -16%
O=C(Cn1c(=O)oc2ccccc21)Nc1nc(-c2ccc(Br)cc2)cs1 | -2% | 5 | -0.5% | -17%
O=C(NCc1ccco1)c1cccc(NS(=O)(=O)c2ccccc2F)c1 | 3% | -6 | 0.6% | 3%
CSc1ccc(CN2CCC(n3nccc3NC(=O)CCCc3ccccc3)CC2)cc1 | 14% | · | 0.8% | -4%
O=C(Cc1cc(=O)[nH][nH]1)N/N=C/c1c(F)cccc1Cl | 1% | 4 | -0.8% | 2%
CCCCNC(=O)c1cc2c(=O)n3cccc(C)c3nc2n(Cc2ccncc2)c1=N | -3% | -3 | ? | ?
Nc1cc(C(=O)OCC(=O)NNC(=O)c2ccccc2)ccc1Cl | · | · | -1.3% | 20%
CCN1C(=O)C(c2ccc(O)cc2)(c2ccc(O)cc2)c2ccccc21 | 3% | 6 | 2.1% | 2%
COc1ccc(-c2ccc(-c3noc(-c4ccc(OC)c(OC)c4)n3)c(OC)n2)cc1 | 0% | 12 | · | ·
COc1ccc([C@@H]2[C@@H]3C(=O)N(C(C)(C)C)C(=O)[C@@H]3[C@]3(Cc4ccccc4)C(=O)N(c4cccc(C)c4)C(=O)N23)cc1 | · | · | -0.3% | 1%
CCOc1cc(CNC2CCCC2)cc(Cl)c1OCc1ccc(F)cc1 | ? | -10 | 2.7% | -2%
Cc1cc(N=Cc2cc(Cl)ccc2O)no1 | 0% | 2 | 5.8% | -3%
Cc1c(C)c(C)c(S(=O)(=O)NCCc2ccncc2)c(C)c1C | -6% | · | -0.5% | 0%
Nc1ncnc2c1ncn2[C@@H]1O[C@H](CNC(=O)[C@@H](N)COCc2ccccc2)[C@@H](O)[C@H]1O | · | · | -2.2% | 13%
COc1ccc(/C=C(\NC(=O)c2ccc([N+](=O)[O-])cc2)C(=O)NCCCn2ccnc2)cc1 | 0% | · | 0.3% | 3%
COc1ccc(OC)c(NC(=O)CC(NCCC2=CCCCC2)C(=O)O)c1 (configuration not stated) | 0% | 5 | · | ·
CCn1c(COc2ccc(C)cc2)nnc1SCC(=O)NCc1ccco1 | -1% | -3 | 0.3% | 22%
COc1ccccc1-n1c(N)c(C(N)=O)sc1=S | 2% | -5 | 1.7% | 2%

New compounds follow:
SMILES | miR-21 FLuc | GLA inh pH 4.5 | Rango complex inh | Rango dissoc inh
Cc1nn(-c2ccccc2)c2sc(C(=O)NNC(=O)COc3ccccc3)cc12 | -25% | 3 | -0.8% | -6%
Cn1cc(CN2CCC(C(O)c3cccs3)CC2)c(-c2cccc(Cl)c2)n1 (configuration not stated) | -9% | -5 | -1.5% | 0%
CCc1ccc(OC(=O)Cc2ccc(OC)c(S(=O)(=O)N3CCOCC3)c2)cc1 | · | · | 5.7% | 4%
COc1ccc(C2Oc3ccccc3N2C(C)=O)cc1 (configuration not stated) | -9% | 6 | 4.7% | 9%
O=C(CNS(=O)(=O)c1ccc2ccccc2c1)Nc1ccc(F)c(F)c1F | · | · | -0.6% | 20%
COc1cccc(CC(=O)N2CCC(n3nccc3NC(=O)C3CC3)CC2)c1 | -10% | · | -2.5% | -17%
N=c1c(S(=O)(=O)c2ccc(Br)cc2)cc2c(=O)n3ccccc3nc2n1Cc1ccco1 | -7% | · | -1.3% | ?
CCc1nc(NCCC(C)C)c2nnn(Cc3ccccc3)c2n1 | -7% | · | 0.1% | 17%
CN1C(C(=O)Nc2ccc(F)cc2F)=CC(c2ccco2)=NS1(=O)=O | -21%&14% | · | -0.4% | 11%
CCOC(=O)Cn1nc(C)n(-c2cccc(Cl)c2)c1=O | -1% | 3 | -1.5% | 8%
O=C(NC1CCN(C(=O)NCc2ccccc2)CC1)c1ccc(F)cc1 | 2% | · | 0.1% | ?
CCn1c(SCC(=O)NCC(=O)Nc2ccc(F)cc2)nnc1-c1ccncc1 | -1% | -2 | 0.3% | 1%
Cc1ccc(S(=O)(=O)N(CC2CO2)c2ccccc2[N+](=O)[O-])cc1 (configuration not stated) | 0% | -14 | 3.1% | -3%
CN(C)c1ccc(NC(=S)N(CCc2ccccc2)C2CC(=O)N(c3c(Cl)cccc3Cl)C2=O)cc1 (configuration not stated) | -10% | -5 | 10% | -25%
CSCCC(NC(=O)OC(C)(C)C)C(=O)Oc1ccc2c(=O)c(-c3ccc4c(c3)OCCO4)coc2c1 (configuration not stated) | -17% | · | 2.3% | -6%
O=C(Nc1ccc(N2CCOCC2)cc1)c1cccc(-n2cnnc2)c1 | -1% | · | 1.7% | 1%
O=c1cc(Cl)[nH]c(=O)n1Cc1ccccc1 | -7% | · | -0.6% | -8%
CC1CC(C)(C)NC(=S)N1CCC(=O)N1CCN(Cc2ccccc2)CC1 (configuration not stated) | -4% | -1 | 2.2% | 7%
CCOC(=O)C1=C(COC(=O)c2ccc(OC(C)C)cc2)NC(=O)NC1C (configuration not stated) | · | · | -2.4% | 11%
COc1cccc(C(=O)NC2CCCc3c2cnn3-c2ccc(C)c(C)c2)c1OC (configuration not stated) | 24% | · | -1.9% | 19%
COc1ccc(NC(=O)N2CCC(c3ccccc3)C2)c(OC)c1 (configuration not stated) | -8% | -3 | 0.0% | 0%
O=C(Nc1cccc(NC(=O)c2nccc3ccccc23)c1)c1ccco1 | -15% | 5 | 3.2% | -2%
O=C(COc1ccccc1F)Nc1cc(S(=O)(=O)N2CCOCC2)ccc1N1CCOCC1 | 0% | -6 | 0.3% | -1%
COc1ccc(C2c3cc(OC)c(OC)cc3CCN2C(=O)c2ccccc2)cc1OC (configuration not stated) | 1% | · | -4.5% | -14%
Cc1ccc(C)c(OCC(=O)O/N=C(\N)c2cccnc2)c1 | -34% | -5 | 0.6% | 6%

Next section
SMILES | miR-21 FLuc | GLA inh pH 4.5 | Rango complex inh | Rango dissoc inh
CCOC(=O)C1CCN(C(=O)CN(c2cc(OC)ccc2OC)S(=O)(=O)c2ccccc2)CC1 | -1% | 0 | -1.8% | -11%
CCOC(=O)c1nnc(-c2ccc(C)cc2)nc1Sc1ccccc1Cl | -1% | 0 | 0.9% | -4%
CN1CCN(CCCNC(=O)Cn2ncc3c4ccccc4n(C)c3c2=O)CC1 | -9% | 3 | -1.3% | 8%
CCC(=O)N(C)CCc1cc2c(c(OC)c1/C=N/NC(=O)c1ccccc1O)OCO2 | -7% | -2 | 2.6% | 0%
O=C(Nc1cccnc1Cl)c1cccc(S(=O)(=O)N2CCOCC2)c1 | 0% | · | ? | -14%
Cc1ccc(C(C)C)c(OCCN(C)C)c1 | 0% | -8 | 2.5% | -6%
COc1ccc(/C=C/C(=O)C2(O)CCCCC2)cc1OC | 22% | -11 | 2.6% | 17%
C/C(CC(=O)Nc1cccc(C(F)(F)F)c1)=N\NC(=O)C1CCCCC1 | -4% | 1 | -6.8% | 1%
O=C(NCC1COc2ccccc2O1)c1cc2ccccc2o1 (configuration not stated) | -31% | -7 | -0.6% | 2%
O=C(COC(=O)C1=COCCO1)Nc1ncc(Cl)cc1Cl | · | · | -1.7% | -2%
CC(C)Oc1cc(NC(=O)CSCC(=O)Nc2cccc(C(F)(F)F)c2)c(Cl)cc1Cl | 3% | -12 | 2.1% | 0%
Cc1ccc(N2C(=O)C(Cl)=C(N3CCCCCC3)C2=O)c(C)c1 | -3% | · | ? | -11%
CC(NC(=O)c1ccccc1F)c1nnc(SCC(=O)Nc2nnc(C3CC3)s2)n1C (configuration not stated) | · | · | -3.2% | -14%
CN(C)/C=C/C(=O)c1cnc(-c2ccccc2)s1 | -53% | -4 | 0.8% | -15%
O=C(NCCN1CCN(Cc2ccccc2)CC1)c1cc2c(=O)[nH]c3ccccc3c2s1 | -3% | -6 | -3.0% | -1%
C=CCNC(=O)CSc1ccc(Cl)cc1 | -19% | -1 | -0.9% | 7%
CCCCn1c(N)c(N(CCOC)C(=O)COC(=O)c2cc(CCC)c(C)s2)c(=O)[nH]c1=O | · | · | 2.6% | 14%
COc1ccc2c(c1)C(c1cccs1)=NNC(c1ccncc1)=N2 | 0% | 3 | -2.2% | -16%
c1cc2c(cc1C1CCCCC1)c1c3n2CCCNC3CCC1 (configuration not stated) | ? | -3 | 0.2% | 0%
CC(C)NC(=O)N(C)C[C@@H]1Oc2ccc(NC(=O)CCN3CCOCC3)cc2CC(=O)N([C@@H](C)CO)C[C@@H]1C | · | · | 3.3% | 2%
Cc1nn2c(NCCCn3ccnc3)cc(C(C)C)nc2c1-c1ccccc1 | -17% | -7 | 5.8% | -2%
COc1ccc(C2=[N+](C)CCn3cccc32)c(OC)c1 | 11% | -10 | -6.5% | -13%
COc1ccccc1N1CN(Cc2ccccc2)CNC1=S | 0% | 8 | 3.2% | -4%
CCN(CC(=O)Nc1ccccc1C(F)(F)F)CC(=O)NC1CC1 | · | · | 0.2% | 2%
COc1ccc(NC(=O)c2ccc(=O)[nH]c2)cc1S(=O)(=O)N1CCOCC1 | · | · | 4.5% | -10%
COC(=O)c1ccccc1S(=O)(=O)N1CCC(C(=O)OCC(=O)NC2CCCCC2C)CC1 (configuration not stated) | · | · | -4.7% | -2%
CCN1CCCC1CNC(=O)c1cc2c(=O)n(C)c3ccccc3c2n1C (configuration not stated) | 1% | 3 | -0.7% | -15%
Cc1ccccc1C1=NC(C(F)(F)F)(C(F)(F)F)c2c(n(-c3ccc(F)cc3)c(=O)[nH]c2=O)N1 | -5% | 0 | 0.5% | 0%
CN(C1CCCC1)C1CCN(C(=O)CNC(=O)/C=C/c2cccc(C(F)(F)F)c2)CC1 | -1% | 5 | 1.4% | 4%

3 of the compounds above, as tab-separated lines.
Compound	miR-21 FLuc	GLA inh pH 4.5	Rango complex inh	Rango dissoc inh
COc1ccc(C2=[N+](C)CCn3cccc32)c(OC)c1	11%	-10	-6.5%	-13%
COc1ccccc1N1CN(Cc2ccccc2)CNC1=S	0%	8	3.2%	-4%
CCN(CC(=O)Nc1ccccc1C(F)(F)F)CC(=O)NC1CC1	·	·	0.2%	2%

Arranged by molar mass (high to low): some entries from above
SMILES | miR-21 FLuc | GLA inh pH 4.5 | Rango complex inh | Rango dissoc inh
CCCCn1c(N)c(N(CCOC)C(=O)COC(=O)c2cc(CCC)c(C)s2)c(=O)[nH]c1=O | · | · | 2.6% | 14%
CN1CCN(CCCNC(=O)Cn2ncc3c4ccccc4n(C)c3c2=O)CC1 | -9% | 3 | -1.3% | 8%
C/C(CC(=O)Nc1cccc(C(F)(F)F)c1)=N\NC(=O)C1CCCCC1 | -4% | 1 | -6.8% | 1%
CCN(CC(=O)Nc1ccccc1C(F)(F)F)CC(=O)NC1CC1 | · | · | 0.2% | 2%
CN(C)/C=C/C(=O)c1cnc(-c2ccccc2)s1 | -53% | -4 | 0.8% | -15%

Only part of the results is shown (hit frequency here may not be typical).
